ALR inh: inhibitors of human sulfhydryl oxidase ALR; AID 485317; inhibition, % (test concentration not listed); P55789; actives 3.8% (n = 290,000); purified ALR, DTT oxidation, H2O2 HRP-luminol luminescence;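 active = mean and each replicate at 75% or more; inconclusive = only one of the two met; inactive = neither met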;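 also: stock transfer was 7.5 nL into about 7.5 µL; 0% = neutral wells and 100% = wells with inactivated enzyme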
B2AR ag: agonists of human beta-2 adrenergic receptor inducing internalization; actives 0.43% (n = 340,000); response, % (test concentration not listed); Am2.2-beta2AR cells, FAP receptor internalization, flow cytometry; reference of the scale not given here; P07550;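 active = response above a set limit, near 3 SD of response in nonfluorescent compounds, cut at about 42% in these data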;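 also: stock transfer was 100 nL into about 11 µL; a reference agonist was the positive control; negative values mostly stem from fluorescent compounds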
HNF4A DNA FP: change in binding of human HNF4 alpha to DNA. activity change, % at 10 µM. HNF4a-FITC DNA binding, fluorescence polarization, 1 h. actives 0.3% (n = 360,000). P41235. AID 1224865; in the data active = activity change above about 30%, passing the limit was not always enough;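 also: controls were the assay level and a saturating level of protein; the project sought stronger binding though the title names inhibitors; some compounds called inactive have numbers as strong as hits; positive values seem to mean higher polarization but the record does not say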
Target sequence (P41235 whole entry, looked up): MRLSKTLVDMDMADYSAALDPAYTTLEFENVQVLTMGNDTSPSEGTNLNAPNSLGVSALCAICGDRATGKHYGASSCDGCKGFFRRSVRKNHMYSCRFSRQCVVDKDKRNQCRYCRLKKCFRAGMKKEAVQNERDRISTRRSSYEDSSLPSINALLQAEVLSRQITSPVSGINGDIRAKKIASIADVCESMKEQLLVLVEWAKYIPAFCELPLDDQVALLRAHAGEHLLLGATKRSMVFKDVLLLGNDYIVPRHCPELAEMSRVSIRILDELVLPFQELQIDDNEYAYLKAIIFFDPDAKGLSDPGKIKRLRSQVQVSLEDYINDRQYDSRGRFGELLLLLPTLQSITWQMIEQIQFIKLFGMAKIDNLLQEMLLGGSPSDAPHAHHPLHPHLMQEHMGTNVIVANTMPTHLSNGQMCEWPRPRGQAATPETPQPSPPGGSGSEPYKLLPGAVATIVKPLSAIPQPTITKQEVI
Ecoli growth: inhibitors of Escherichia coli growth | OD600 absorbance (no concentration beside the values) | actives 0.21% (n = 330,000) | OD600, 23 h; active compounds read low | AID 1053175;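 active = OD600 absorbance below the run mean of sample wells minus 3.6 SD, in any replicate, cut at about 0.56 in these data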;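 also: stock transfer was 300 nL into about 60 µL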
UCH37 inh: inhibitors of human deubiquitinating enzyme UCH37; Q9Y5K5; purified proteasome/UCH37, Ub-AMC cleavage fluorescence; inhibition, % (no concentration beside the values); actives 0.33% (n = 330,000);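 active = mean of two replicates above 20%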;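 also: 0% = compound-free wells with enzyme and 100% = wells lacking proteasome; stock transfer was 100 nL into about 20 µL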
Target sequence (Q9Y5K5 whole entry, looked up): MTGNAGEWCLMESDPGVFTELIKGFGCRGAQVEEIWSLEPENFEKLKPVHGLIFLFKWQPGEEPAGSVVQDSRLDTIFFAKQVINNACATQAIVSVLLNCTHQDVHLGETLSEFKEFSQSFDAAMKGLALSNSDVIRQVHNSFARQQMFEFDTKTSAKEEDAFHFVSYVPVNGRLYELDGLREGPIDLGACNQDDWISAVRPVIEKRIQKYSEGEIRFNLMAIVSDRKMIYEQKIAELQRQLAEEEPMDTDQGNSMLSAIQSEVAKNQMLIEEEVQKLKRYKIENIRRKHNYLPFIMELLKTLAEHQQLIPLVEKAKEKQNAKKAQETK
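Schedule: 30 min plus 25 min, room temperature / Material: human UCH37 within purified proteasomes / Technique: AMC fluorescence intensity at 355/460 nm / Buffer or medium: pH 7.4 Tris-HCl (50 mM) with ovalbumin, ATP-MgCl2, DTT / Controls: wells without proteasome as full block, compound-free enzyme plus substrate as uninhibited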
FGF22 binding: FGF22 (human) thermal shift binding. Q9HCT0. recombinant FGF22 thermal shift, SYPRO orange fluorescence; percent of sucrose octasulfate shift, DMSO zero. calls only at 9.99 µM. actives 1.5% (n = 340,000);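 active = melting point raised past a set limit in the mean and every replicate; inconclusive = no clear call; three in four hits are not shown here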
Target sequence (Q9HCT0 whole entry, looked up): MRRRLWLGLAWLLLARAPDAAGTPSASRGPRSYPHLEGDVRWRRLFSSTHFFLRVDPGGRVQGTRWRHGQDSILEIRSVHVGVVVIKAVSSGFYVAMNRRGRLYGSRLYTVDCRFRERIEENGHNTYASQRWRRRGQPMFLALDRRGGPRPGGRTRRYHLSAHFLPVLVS
LANA-H2A inh: blocks KSHV LANA binding to histone H2A/H2B; Q9QR71; cell-free LANA-H2A/H2B peptide, fluorescence polarization; inhibition, % (test concentration not listed); actives 0.6% (n = 320,000); in the data active = inhibition mostly above about 10%, no sharp cut-off; inactive = mostly below about 6.7%;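 also: stock transfer was 7.5 nL into about 10 µL; 0% = median of vehicle wells and 100% = median of positive control wells; one replicate is shown; the record names a cut of 25% in any replicate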
* = called active by the depositor; i = inactive; ? = inconclusive; · = not tested or not shown.

ALR inh,UCH37 inh,B2AR ag,Ecoli growth,HNF4A DNA FP,LANA-H2A inh,FGF22 binding,Compound
-1,0.2,1,0.67,0.0,2.2,·,COc1ccc(CCN(C)CCC(=O)Nc2c(C)cc(C)cc2C)cc1OC
·,1.1,-1,0.69,-3.8,5.4,·,Cc1cc(C)cc(NC(=O)CSc2nnc(-c3ccc(S(=O)(=O)N4CCCC4)cc3)o2)c1
·,-2.9,5,0.69,1.6,7.7,i,N#C/C(=C(/O)c1ccc([N+](=O)[O-])cc1)c1nc2ccccc2[nH]1
-9,0.2,1,·,0.4,-3.0,i,O=C(O)/C=C/c1ccc(S(=O)(=O)NCc2ccco2)cc1
-12,·,0,·,-1.3,1.6,·,CCCCCCCCCC(=O)N/N=C/c1ccc(C)s1
7,·,2,·,3.7,1.4,·,Cc1ccc(-n2c(C)cc(/C=N/NC(=O)CN(c3ccc(C)cc3C)S(C)(=O)=O)c2C)cc1
·,-6.9,2,0.71,4.4,·,i,Cc1ccc(C)c(S(=O)(=O)N2CCN(C(=O)CNC(=O)c3sc4ccccc4c3Cl)CC2)c1
99*,·,13,·,1.8,-4.1,i,CCC(C)/C(C)=N/NC(=O)c1ccc(COc2ccc(Cl)c(C)c2)cc1 (stereo unspecified)
-10,2.6,-1,0.65,0.0,-3.3,i,CSc1cccc(NC(=S)N(CCC(C)C)C2CCN(C(C)C)CC2)c1
10,9.8,2,0.7,1.4,0.1,i,COc1ccc(C2/C(=C(/O)c3ccccc3)C(=O)C(=O)N2CCCN2CCOCC2)cc1 (stereo unspecified)
-1,7.3,33,0.72,-2.1,-4.2,·,CCS(=O)(=O)Nc1cccc(C2=NN(S(=O)(=O)c3ccc(F)cc3)C(c3cccs3)C2)c1 (stereo unspecified)
7,5.5,9,0.7,-3.5,-3.1,i,COc1ccc(/C=C(/C#N)C(=O)Nc2ccccc2C)cc1C(=O)O
-10,5.0,-5,0.67,-3.1,-4.9,i,CN(C)S(=O)(=O)N1C(=O)c2ccccc2C1=O
-2,0.7,22,0.7,0.8,1.9,i,CCn1c2ccccc2c2cc(NC(=O)c3ccccc3[N+](=O)[O-])ccc21
44,·,1,·,1.5,2.0,i,S=C(NCc1ccco1)N1CCN(c2ccccc2Cl)CC1
·,3.0,-7,0.72,0.7,1.4,i,Cn1ccnc1CC(O)(c1ccccc1)c1ccccc1
-11,1.8,-2,0.66,-0.6,2.4,·,CC(=O)NCC(=O)OCC(=O)c1ccc(Br)cc1
20,·,-6,·,2.0,-12,i,Cc1nc(N)sc1C(=O)N/N=C/c1ccco1
-3,2.4,3,0.65,-2.9,1.0,i,CCCn1nnc(NC(=O)c2ccc3c(c2)OCO3)n1
2,-2.6,-2,0.69,1.3,1.8,·,COc1ccc(OC)c(C(=O)COC(=O)c2cc(C)oc2C)c1
0,11,-3,0.72,-1.6,1.9,·,CCOC(=O)C(=O)NCc1ccc(/C=C2/N=C(C)C(C(=O)OCC)=C2O)o1
7,·,-1,·,-1.3,3.0,i,CCC(=O)N(c1nnc(SCC(=O)c2ccc[nH]2)s1)C1CC1
9,4.5,3,0.71,0.3,-0.9,i,O=C(COC(=O)/C=C/c1cccs1)Nc1ccc(F)cc1
·,2.5,10,0.66,-0.8,·,i,Cc1cccc(N(Cc2ccccc2)C(=O)CCl)c1
3,-0.8,1,0.65,0.2,-15,i,CCOC(=O)c1cccc(NC(=O)CNC(=O)C2CCCCC2)c1
-10,-1.2,3,0.69,-6.8,5.0,i,CCOc1ccccc1CN1CCNC(=O)C1CC(=O)N(C)CCC1CCOCC1 (stereo unspecified)
-6,·,-6,·,-0.6,0.8,·,Cc1ccc(S(=O)(=O)/N=C2\SC(CC(=O)Nc3ccc(F)cc3)C(=O)N2c2ccccc2)cc1 (stereo unspecified)
-5,3.9,-10,0.73,-2.6,-1.7,i,CCOC(=O)N1CCN(c2c(NCCc3ccc(OC)c(OC)c3)c(=O)c2=O)CC1
-2,-18,2,0.71,-2.7,-3.5,i,O=c1cnc2ccccc2n1Cc1ccc(Br)cc1
99*,4.9,16,0.69,-1.9,1.1,·,CCOC(=S)SCC(=O)Nc1nc(-c2ccccc2)cs1
0,2.6,6,0.71,5.0,0.9,i,NC(=O)c1ccc(-c2nnn(CC(=O)Nc3cccc(S(=O)(=O)N4CCCC4)c3)n2)cc1
-14,-0.7,1,0.71,-2.7,0.6,·,O=C(C1CC(c2ccc(F)cc2)=NO1)N1CCCc2ccccc21 (stereo unspecified)
-1,0.1,-6,0.71,1.7,-5.5,i,CCN(C(=O)COC(=O)c1cc2c(s1)CCCCC2)C1CCS(=O)(=O)C1 (stereo unspecified)
?,·,-6,·,6.2,1.8,i,COC(=O)c1ccc(NC(=O)CC2C(=O)N(C)C(=S)N2Cc2ccc(S(N)(=O)=O)cc2)cc1 (stereo unspecified)
-21,2.0,2,0.71,2.9,2.0,·,N=c1n(CCO)c2ccccc2n1Cc1ccc(Cl)cc1
19,0.7,-2,0.66,-5.7,0.5,·,C=CCSc1nc2sc3c(c2c(=O)[nH]1)CCC3
·,5.7,0,0.71,0.0,·,i,O=C(NC1CCOC1=O)c1ccccc1 (stereo unspecified)
-8,0.1,4,0.72,-0.2,-0.9,i,O=C1CSc2ccc(S(=O)(=O)CCC(=O)NC3CCCCC3)cc2N1
-5,-0.4,-7,·,-3.6,-2.3,i,CC(=O)C[C@H]1c2cc(C(F)(F)F)ccc2S(=O)(=O)N1Cc1ccccc1
12,1.9,5,0.7,3.0,1.5,i,CN(C(=O)COC(=O)CNC(=O)c1ccc(C(C)(C)C)cc1)c1c(N)n(Cc2ccccc2)c(=O)[nH]c1=O
-7,·,0,·,2.2,3.5,·,CC1C/C(=N\Nc2ccc(S(N)(=O)=O)cc2[N+](=O)[O-])CC(C)(C)C1 (stereo unspecified)
·,·,0,·,-0.7,·,i,O=C(NCCCc1ccccc1)c1cccc(NC(=O)c2ccccc2)c1
3,2.2,1,·,-1.1,5.0,i,O=C1C=C(c2ccc(F)cc2OCc2ccccc2)C[C@@H](c2ccc3c(c2)OCO3)C1
-23,2.9,1,0.66,-3.2,-1.0,·,CN(C)c1ccc(CNCCC2(O)CCOC(C)(C)C2)cc1 (stereo unspecified)
-5,4.9,2,0.71,2.2,-2.2,i,COc1ccc(NC(=O)CCNS(=O)(=O)c2ccc3[nH]c(=O)oc3c2)cc1Cl
-12,4.0,-4,0.71,-0.2,4.2,·,Cc1csc(SCC(=O)Nc2cccc(S(=O)(=O)N3CCOCC3)c2)n1
99*,-0.7,11,0.71,6.2,-0.3,i,COc1ccc2[nH]c(C)c(-c3csc(N)n3)c2c1
-11,-1.3,-7,0.72,0.5,-4.4,·,O=C(Cc1n[nH]c(=O)c2ccccc12)Nc1ccc(-c2nnc3n2CCCCC3)cc1
15,-23,-2,0.7,-1.8,0.3,i,COCCNC(=O)c1ccc2c3n(nc2c1)-c1ccc(C)cc1CO3
·,4.4,5,0.65,0.1,-3.2,i,CNC(=O)CNC(=O)Nc1ccc(C)cc1
·,0.8,-1,0.66,-5.0,·,i,CC(=O)Nc1cc2c(c(Cl)c1Cl)-c1ccccc1C2=O
-3,1.5,-1,0.69,-3.0,-3.2,i,COc1ccc(C(=O)C2CCCN(C(=O)c3cc(C)nc(C)n3)C2)cc1OC (stereo unspecified)
-6,2.0,-7,0.66,5.6,-3.6,·,O=C(OCc1nc2scc(-c3ccccc3)c2c(=O)[nH]1)c1cc(Cl)ccc1[N+](=O)[O-]
3,2.6,4,0.72,-4.2,3.6,·,CSc1nc(-c2ccco2)nn1S(C)(=O)=O
-6,5.0,-2,0.73,-1.6,-1.1,·,O=C(NOC(=O)c1ccccc1Cl)c1cccs1
-6,-0.2,5,·,0.0,0.6,i,C[N+](C)(C)CCOP(=O)([O-])OC[C@H](O)CO

Carrying on:
ALR inh,UCH37 inh,B2AR ag,Ecoli growth,HNF4A DNA FP,LANA-H2A inh,FGF22 binding,Compound
27,7.8,-5,0.69,3.1,4.8,i,O=C(NCCO)c1ccc(-c2nnc(Nc3ccc(O)cc3)c3ccccc23)cc1
-9,3.5,-9,0.65,-2.8,2.5,i,CCn1cc(Cl)c(C(=O)Nc2cccc(CN3CCOCC3)c2)n1
98*,1.0,7,0.74,1.2,-9.0,·,Cc1cc(Nc2ccccc2)n(-c2ccccc2)n1
-12,4.1,-7,·,-1.0,1.5,i,COC(=O)C[C@H]1c2cc(C(F)(F)F)ccc2S(=O)(=O)N1Cc1ccc(OC)cc1
-1,-0.7,10,·,2.5,-1.0,·,COc1ccc(-c2[nH]ncc2C=O)cc1
·,·,-1,·,5.5,5.8,i,C/C(=N\NC(N)=S)c1ccncc1
-5,0.2,2,0.66,1.7,-0.7,·,O=c1nc(N(c2ccccc2)c2ccccc2)[nH]c(=O)[nH]1
·,·,0,0.67,-2.5,6.6,·,CC1(C)CC(=O)C2=C(C1)N(c1ccccc1)C(N)=C(C#N)C2c1cccnc1 (stereo unspecified)

Given with two lines to a compound: entries from further up
Screens in order: ALR inh	UCH37 inh	B2AR ag	Ecoli growth	HNF4A DNA FP	LANA-H2A inh	FGF22 binding
> Cc1cc(Nc2ccccc2)n(-c2ccccc2)n1
    98*	1.0	7	0.74	1.2	-9.0	·
> COC(=O)C[C@H]1c2cc(C(F)(F)F)ccc2S(=O)(=O)N1Cc1ccc(OC)cc1
    -12	4.1	-7	·	-1.0	1.5	i
> COc1ccc(-c2[nH]ncc2C=O)cc1
    -1	-0.7	10	·	2.5	-1.0	·
> C/C(=N\NC(N)=S)c1ccncc1
    ·	·	-1	·	5.5	5.8	i
> O=c1nc(N(c2ccccc2)c2ccccc2)[nH]c(=O)[nH]1
    -5	0.2	2	0.66	1.7	-0.7	·
> CC1(C)CC(=O)C2=C(C1)N(c1ccccc1)C(N)=C(C#N)C2c1cccnc1 (stereo unspecified)
    ·	·	0	0.67	-2.5	6.6	·

Next compounds follow.
ALR inh,UCH37 inh,B2AR ag,Ecoli growth,HNF4A DNA FP,LANA-H2A inh,FGF22 binding,Compound
·,-0.4,-5,0.68,4.2,·,i,CC(C)CN1CC(C)C(=O)N(c2ccccc2)C1=O (stereo unspecified)
-1,-7.2,0,0.72,-0.7,-0.5,·,CCCNC(=O)c1ccccc1NS(=O)(=O)c1ccc2c(c1)OCCO2
-4,-1.6,4,0.75,-1.6,-1.2,i,Oc1ccccc1-c1nnc(COc2ccc(Cl)cc2Cl)o1
-4,0.7,-3,0.74,-3.9,5.2,·,Cn1c(=O)c2c(nc(NCc3ccccc3)n2CC(=O)NCc2ccccc2)n(C)c1=O
-4,4.1,14,0.76,-0.2,0.9,·,CCN(CC)S(=O)(=O)c1cccc(NC(=O)c2ccc(SC)cc2OC)c1
-14,·,7,·,-4.0,1.7,·,CCCc1cc(=O)[nH]c(-n2[nH]c3c(c2=O)CCCC3)n1
-4,0.7,7,0.65,1.2,0.3,i,O=C(CN(Cc1cccs1)C(=O)CNS(=O)(=O)c1ccccc1)NC1CCCC1
-4,5.6,-4,0.71,6.9,6.0,i,CC1Cc2cc(/C=C3/SC(=S)N(C)C3=O)ccc2O1 (stereo unspecified)
·,2.1,4,0.7,0.0,-10,i,Cc1ccc(-c2cc(-c3ccccc3)no2)cc1
3,0.2,-1,0.67,3.1,-6.2,i,CCCN(CC(=O)Nc1cc(Cl)ccc1Cl)C(=O)c1ccc2n[nH]nc2c1
99*,3.5,2,0.67,6.9,-9.4,·,CC(C)CC(NC(=O)c1ccccc1)C(=O)OCC(=O)Nc1ccc(Br)cn1 (stereo unspecified)
1,·,6,·,-3.4,2.1,i,CC(C)c1cc(C(=O)N/N=C/c2ccoc2)c(O)c(C(C)C)c1
3,4.3,-10,0.7,-0.1,-0.8,i,Cn1nccc1C(=O)N1CCN(c2ccccc2F)CC1
·,·,-9,·,-3.0,·,i,O=C(C1CCCN(S(=O)(=O)c2ccc(F)cc2)C1)N1CCOCC1 (stereo unspecified)
·,33*,5,0.68,1.4,0.1,i,NC(=O)C1CCN(C2=C(NS(=O)(=O)c3ccc(Cl)cc3)C(=O)c3ccccc3C2=O)CC1

Screening data (PubChem BioAssay)

Some of the compounds tested; rates above refer to the full screens.
